From PubChem
2A StopGo – lowers the luciferase signal of an FMDV 2A StopGo reporter. 1.2% of 410,000 active. Potency, µM (top dose mostly 57.9 µM), inactives show at the highest dose signal change, negative = less light. AID 1159524. human cells with a luciferase reporter of 2A StopGo recoding; control for the full effect not named in the record; active = well fitted falling curve with a large enough effect; inconclusive = small, poorly fitted or top-dose-only effect; inactive = no such curve, though single readings can be large or run the other way; tested in HEK293T cells; further: on the % scale 0 is the no-effect control and ±100 the full control effect; nearly all actives have a fitted effect of over 45% in size; luciferase light after 4 h
Lassa entry inh – Lassa virus entry inhibition; Lassa virus pseudotype entry inhibition, cell reporter; control for the full effect not named in the record; Potency, µM (series often up to 37.9 µM), for inactives: top-dose activity change, negative = inhibition, usual class: inhibitors; 1.2% of 300,000 active; active means well fitted inhibition curve with a large enough effect; inconclusive means small, poorly fitted or top-dose-only effect, or effect the other way; inactive means flat fitted curve, though single readings scatter; tested in HEK293 cells; further: on the % scale 0 is the no-effect control and ±100 the full control effect; nearly all actives have a fitted effect of over 50% in size; luciferase read-out
Cruzain noTriton – inhibitors of Trypanosoma cruzi cruzain without detergent | Potency, µM, for the others: max response, negative = inhibition, hits mostly inhibitors | P25779 | 2.3% of 200,000 active | AID 1476 | purified cruzain, Z-FR-AMC fluorescence, no detergent; active means well fitted curve in the direction sought with a large enough effect; inconclusive means small, poorly fitted or top-dose-only effect, or another doubt; inactive means no such curve, though single readings can be large; an effect the other way counts as inactive or inconclusive;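 further: plate controls were enzyme without inhibitor for no effect and buffer without enzyme for full effect; nearly all actives have a fitted effect of over 40% in size; top concentration of the series not given in the record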
Target sequence (P25779 123-467 limits assumed): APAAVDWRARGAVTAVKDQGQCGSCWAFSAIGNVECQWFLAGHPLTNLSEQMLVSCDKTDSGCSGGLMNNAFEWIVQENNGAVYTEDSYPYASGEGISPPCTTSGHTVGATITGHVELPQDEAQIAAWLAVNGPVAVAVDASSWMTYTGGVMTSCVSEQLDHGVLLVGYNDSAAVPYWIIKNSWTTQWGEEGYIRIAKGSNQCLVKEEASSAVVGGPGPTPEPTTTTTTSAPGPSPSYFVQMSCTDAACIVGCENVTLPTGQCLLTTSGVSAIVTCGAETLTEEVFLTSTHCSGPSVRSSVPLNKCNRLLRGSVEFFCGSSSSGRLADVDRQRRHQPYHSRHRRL
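Detergent-free condition (0.00005% Triton X-100) in acetate buffer pH 5.5 with DTT. 1.5 nM enzyme and compound were pre-mixed 15 min, then 2 uM Z-FR-AMC substrate added; reaction progress from fluorescence change between first and third reads (60 s).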
Cruzain inh Det – blocks cruzain activity in presence of Triton detergent | purified cruzain, Z-FR-AMC fluorescence, 0.01% Triton | Potency, µM, without a hit: max response, negative = inhibition, hits mostly inhibitors | 0.43% of 200,000 active | AID 1478; active means well fitted curve in the direction sought with a large enough effect; inconclusive means small, poorly fitted or top-dose-only effect, or another doubt; inactive means no such curve, though single readings can be large; an effect the other way counts as inactive or inconclusive;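 further: plate controls were neutral wells for no effect and buffer without enzyme for full effect; nearly all actives have a fitted effect of over 40% in size; top concentration of the series not given in the record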
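Compounds were screened in titration against cruzain (1.5 nM) with 0.01% Triton X-100 to counter colloidal aggregation. Activity was the AMC fluorescence increase over 60 s after adding 2 uM Z-FR-AMC at pH 5.5.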
RE007 growth inh – less growth of the S. pombe RE007 Vpr strain; S. pombe RE007 Vpr strain, BacTiter-Glo ATP luminescence, 24 h; control for the full effect not named in the record; Potency, µM (series often up to 92.2 µM), inactives show at the highest dose activity change, negative = less growth; 0.21% of 360,000 active; AID 651644; active = well fitted falling curve with a large enough effect; inconclusive = small, poorly fitted or top-dose-only effect; inactive = no such curve, though single readings can be large or run the other way;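 further: on the % scale 0 is the no-effect control and ±100 the full control effect; nearly all actives have a fitted effect of over 50% in size; the assay follows cell death caused by Vpr and the record does not say whether a fall means rescue or toxicity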
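Fission yeast strain RE007, carrying one chromosomally integrated HIV-1 vpr copy, was seeded at OD 0.01 in PMG+AL medium with 23 nL pinned compound. After 24 h at 30 °C and 99% humidity, viability was read by BacTiter-Glo luminescence.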
Marburg entry inh – inhibitors of Marburg virus binding or cell entry | Marburg virus pseudotyped entry inhibition, cell reporter; control for the full effect not named in the record; about a third of the inactives were read at about 46 µM | Potency, µM (top dose mostly 37.8 µM), without a hit: top-dose activity change, negative = inhibition, hits mostly inhibitors | 1.8% of 300,000 active; active = well fitted inhibition curve with a large enough effect; inconclusive = small, poorly fitted or top-dose-only effect, or effect the other way; inactive = flat fitted curve, though single readings scatter; tested in HEK293 cells; about a fifth of its hits are not listed in these tables; further: on the % scale 0 is the no-effect control and ±100 the full control effect; luciferase read-out
NS1 function inh – blocks influenza NS1 protein function; S. cerevisiae slowed by influenza A NS1, growth recovery by OD600; Potency, µM (highest dose often 46.1 µM), for the others: at the top dose activity, positive = more growth; 0.4% of 270,000 active; further: actives are rising curves; nearly all actives have a fitted effect of over 50% in size
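S. cerevisiae expressing influenza A NS1, grown in glucose, washed, then diluted 1:100 into pH 6.0 -URA galactose medium with 23 nl compound. Growth recovery read as OD600; NS1-free strain serves as control.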
SARS PLpro yeast – SARS-CoV PLP inhibition in yeast; S. cerevisiae expressing SARS-CoV PLpro, growth rescue; control for the full effect not named in the record; 0.19% of 330,000 active; Potency, µM (doses to about 32.9 µM), inactives show top-dose activity, positive = growth rescue; further: 0% is about no effect; nearly all actives have a fitted effect of over 55% in size; growth read by luminescence after 48 h
Starred values were filed as active, the others as inactive; u = inconclusive; x = no result given; & = joins results of further samples; [ ] = another dose, or the depositor's remark. Unless noted, the call rests on the fitted dose curve; in most records, active means well fitted rising curve with a large enough effect; inconclusive means small, poorly fitted or top-dose-only effect; inactive means no such curve, though single readings can be large or run the other way. Potency means the concentration at half of the fitted maximal effect.

canonical_smiles | 2A StopGo | Lassa entry inh | Cruzain noTriton | Cruzain inh Det | RE007 growth inh | Marburg entry inh | NS1 function inh | SARS PLpro yeast
COc1ccccc1Nc1ccc([N+](=O)[O-])cn1 | 16.6% | -3.3% | x | x | -5.5% | u | -3.7% | -0.9%
COC(=O)c1ccc(N=NNc2ccccc2)cc1 | -2.1% | u | -17.9% | -3.4% | 0.3% | u | -1.0% | -10.6%
COc1ccc(NC(=O)CSc2nnc(Cc3ccccc3)o2)c(OC)c1 | x | -10.6% | 4.6% | 3.5% | 3.9% | u | -60.2% | -1.5%
CC(C)N(c1ccccc1)c1ncnc(NCCC(=O)O)c1[N+](=O)[O-] | -22.8% | -1.1% | -6.8% | 1.5% | -1.9% | 4.1% | -3.8% | -1.6%
Cc1ccc2c(c1)C1(OCCO1)C(=O)N2 | 27.6% | 11.4% | -3.5% | 5.4% | -15.7% | 19.2%[46.1 µM] | -5.4% | 0.6%
O=C(C1CCN(S(=O)(=O)c2cccc3cccnc23)CC1)N1CCN(c2ccccc2)CC1 | -1.0% | x | u | -9.0% | -0.1% | x | -6.7% | 5.3%
Cc1ccc(Cn2c(=O)n(CCCCC(=O)NCc3ccc4c(c3)OCO4)c(=O)c3ccccc32)cc1 | 5.6% | -21.9%[46.1 µM] | -6.3% | -1.4% | x | -6.9%[46.1 µM] | x | x
Cc1cc(=O)[nH]c(SCC(=O)Nc2nc(-c3ccccc3)cs2)n1 | -29.4% | -28.2% | 5.2% | -6.8% | u | 14.6% | 5.2% | 10.6%
CCCCNC(=S)NNC(=O)c1nn(C)cc1Cl | -9.8% | 1.2% | 22.5% | 1.1% | 7.4% | 5.3% | 5.6% | -14.9%
CCn1c(C)cc(/C=C2/SC(=O)N(CC(=O)N3CCCC3)C2=O)c1C | 38.3%[activator] | x | x | x | 17.7% | -24.0%[46.1 µM] | 8.4% | -1.5%
c1ccc(-c2nnc3sc(-c4ccncc4)nn23)cc1 | 9.7% | 4.6% | -13.0% | -5.7% | 10.4% | -18.6% | -0.9% | 2.3%
Cc1ccc(S(=O)(=O)N2CC(C(=O)O)Oc3ccccc32)cc1 (stereo not drawn) | -4.4% | 19.9%[46.1 µM] | x | x | 7.1% | 8.3%[46.1 µM] | -0.9% | 2.0%
Cc1csc(CN(C)C(=O)CC2C(=O)NCCN2Cc2ccc(Cl)c(F)c2)n1 (stereo not drawn) | -1.5% | x | x | x | -8.6% | x | 23.1% | -3.4%
CS(=O)(=O)N1CCCC(C(=O)Nc2c(F)cccc2F)C1 (stereo not drawn) | -13.7% | -6.2% | x | x | -1.6% | 4.1% | -10.3% | -8.4%
COc1cc(/C=C/C(=O)C2C(=O)C=C(C)OC2=O)cc(OC)c1O (stereo not drawn) | 17.8µM* | -28.7% | u | -2.7% | -16.6% | 0.9% | -3.0% | -2.4%
CC1CCCN(S(=O)(=O)c2csc(C(N)=O)c2)C1 (stereo not drawn) | -8.0% | x | x | x | 6.0% | x | -6.4% | 1.5%
COC(=O)c1cc(S(=O)(=O)N2CCCCCC2)c[nH]1 | -10.2% | x | x | x | -4.2% | x | 5.3% | 3.2%
O=C(COc1ccc(S(=O)(=O)N2CCOCC2)cc1Cl)NCc1ccccn1 | 13.5% | 6.6% | x | x | 6.4% | 16.5%[46.1 µM] | -1.8% | 1.3%
O=C(CCCn1cncn1)N1CCCC(N2CCN(c3ccccc3F)CC2)C1 (stereo not drawn) | -5.0% | 18.8%[46.1 µM] | x | x | -9.3% | u | -6.2% | u
COC(=O)C1=C(O)CSC1=Nc1cccc(C(F)(F)F)c1 | -15.9% | -6.9% | -1.0% | -3.6% | 1.3% | 0.9% | -4.0% | -2.6%
COc1ccc(Oc2cc(C(F)(F)F)cnc2C(N)=O)cc1 | 0.0% | 3.4% | 1.0% | 0.7% | 8.8% | u | 6.0% | 0.2%
Cc1sc2ncnc(N3CCC(C(=O)Nc4nc5ccc(Cl)cc5s4)CC3)c2c1C | 35.1%[activator] | 0.5% | x | x | 14.7% | 20.9% | x | x
CC1(O)C(=O)c2ccccc2N(c2ccccc2)C1=O (stereo not drawn) | -8.6% | u | 0.4% | -2.1% | 35.9% | -23.7%[46.1 µM] | 2.2% | 20.2%
O=C(CNC(=O)c1ccccc1F)NC1CCN(Cc2ccccc2)CC1 | 12.6% | -6.0%[46.1 µM] | x | x | -21.3% | -5.4%[46.1 µM] | 17.5% | -8.8%
COc1ccc(-c2noc(-c3ccccc3-c3ccccc3)n2)cc1 | -9.8% | -2.1% | -7.4% | 4.5% | 2.8% | -18.8% | -6.9% | -1.1%
O=C(Nc1ccccc1C(=O)O)c1ncn[nH]1 | -12.7% | -0.8% | 5.2% | 1.0% | -17.8% | -10.7% | -2.8% | -5.2%
CN(c1ccccc1)S(=O)(=O)c1ccc(NC(=O)c2ccco2)cc1 | 0.4% | u | x | x | 4.9% | u | x | 1.2%
C=CCOc1c(Cl)cc(CNCCCN2CCOCC2)cc1OC | 4.6% | 13.1%[46.1 µM] | x | x | -7.1% | 10µM* | 11.3% | 1.4%
CCOc1ccc(OCCSc2nc3ccccc3o2)cc1 | 4.0% | -13.5% | 1.9% | 0.8% | -10.3% | -17.8% | -30.1% | -14.8%
CC12CCC(=O)C=C1C(F)CC1C2C(O)CC2(C)C1CCC2(O)C(=O)CO (stereo not drawn) | 8.1% | 4.9%[46.1 µM] | x | x | 13.2% | -1.3%[46.1 µM] | x | x
Cc1ccc(CNC(=O)CCS(=O)(=O)c2ccc3c(c2)CC(C)N3C(=O)C2CC2)cc1 (stereo not drawn) | -20.8%&-11.7% | -18.4%[46.1 µM] | 7.8% | -4.6% | -8.1% | x | 7.5% | 1.4%
N/C(=N\OC(=O)COc1ccc(Cl)cc1Cl)c1cccnc1 | 26.3% | u | 13.6% | -6.6% | -3.6% | u | 6.4% | 5.4%
O=C(c1ccc(Cl)cc1)c1ccc(OCC(O)CN2CCCCC2)cc1 (stereo not drawn) | -26.1% | -0.6% | -1.5% | 1.6% | 8.6% | u | -6.1% | -6.4%
CCn1c(CNC(=O)c2cc(OC)c(OC)c(OC)c2)cc2cc(C)ccc21 | u | u | x | x | -2.8% | u | -2.1% | -3.5%
CCOC(=O)C1CCN(S(=O)(=O)c2cc(-c3cc(C)no3)ccc2C)CC1 | -24.4% | 4.7%[46.1 µM] | 25.9% | -0.7% | x | x | x | x
CCc1cccc(C)c1NC(=S)N(Cc1cccnc1)Cc1ccco1 | -12.3% | -20.6% | -1.9% | -1.5% | 2.3% | 16.5% | -7.8% | -20.7%
Cc1cccc(C(=O)Nc2cc(-c3ccccc3F)nn2-c2ccccc2)c1 | -25.2% | 17.2%[46.1 µM] | -8.0% | -1.4% | x | x | x | x
Cc1ccc(C2CC(=O)C=C(O)C2)cc1 (stereo not drawn) | -2.6% | 3.7% | -4.7% | -0.4% | 5.3% | 2.0%[46.1 µM] | u | -4.3%
O=C(NCCCN1CCOCC1)C(=O)NCc1ccc(Cl)cc1 | -25.0% | 6.3% | x | x | -9.9% | 19.2% | -1.1% | -0.5%
O=C(C1CCN(S(=O)(=O)c2cnc[nH]2)CC1)N1CCN(c2ccc([N+](=O)[O-])cc2)CC1 | 6.2% | x | x | x | 3.8% | x | 0.3% | -0.7%
O=Cc1c(Cl)[nH]c(=O)n1-c1ccccc1 | -3.6% | -2.8% | x | x | -16.2% | -1.5%[46.1 µM] | 1.5% | -0.3%
CCOc1ccc(NC(=O)c2cnc3scc(C)n3c2=O)cc1 | 22.8% | x | -17.9% | 0.7% | 5.1% | x | -58.2% | -3.3%
Cc1ccccc1NC(=O)C(C)N1C(=O)c2ccccc2C1=O (stereo not drawn) | 4.6% | 1.6%[46.1 µM] | x | x | 42.8% | 1.1%[46.1 µM] | u | 6.2%
COc1cc2nc(N(CCCN(C)C)C(=O)c3ccc(S(=O)(=O)N4CCc5ccccc54)cc3)sc2cc1OC | -24.5% | u | x | x | -1.6% | u | x | -2.9%
CCOc1ccc(C(=O)NC(=S)Nc2cccnc2)cc1 | 26.7% | u | -5.6% | -2.6% | -8.8% | u | 5.8% | 17.9%
Cc1oc(-c2ccccc2Cl)nc1CS(=O)(=O)CC(=O)NC(C)c1ccccc1 (stereo not drawn) | 0.0%&-21.0% | -2.7%[46.1 µM] | 4.7% | -5.0% | 6.3% | -18.5%[46.1 µM] | -6.6% | 2.2%
Cc1ccc(Cc2c(C)nc3nc(SCC(=O)NCCCN4CCCC4)nn3c2C)cc1 | -10.2% | 0.1%[46.1 µM] | x | x | -11.3% | u | 5.3% | 0.4%
CCOc1c(Br)cc(C(N)=O)cc1OC | 9.0% | 8.5% | 1.9% | 0.8% | 13.0% | 15.9%[46.1 µM] | -7.0% | 6.0%
COc1ccc(C(=O)C2CCCN(C(=O)CSC)C2)cc1OC (stereo not drawn) | 0.6% | x | x | x | -10.6% | x | 24.3% | -6.0%
CC(=O)N/C(=C\c1ccccc1)C(=O)OC(C)C(=O)NCc1ccccc1 (stereo not drawn) | 4.1% | u | x | x | -2.1% | 14.0% | x | 2.0%

(further entries)
canonical_smiles | 2A StopGo | Lassa entry inh | Cruzain noTriton | Cruzain inh Det | RE007 growth inh | Marburg entry inh | NS1 function inh | SARS PLpro yeast
Cc1ccccc1NC(=O)CSc1ccc(-c2ccco2)nn1 | -24.3% | 5.6% | 1.5% | -3.5% | -8.3% | u | 9.9% | 22.6%
CCOc1ccc(C(=O)NN2C(=O)C3C4C=CC(O4)C3C2=O)cc1 (stereo not drawn) | 19.9% | 23.9% | -1.6% | 6.1% | -3.5% | 0.2% | 6.9% | -0.8%
O=C(Cn1cc(C(=O)c2ccco2)c2ccccc21)Nc1ccc(Br)cc1 | -31.8% | 9.7%[46.1 µM] | 0.8% | 1.1% | x | -16.4%[46.1 µM] | x | x
CCNS(=O)(=O)c1ccc(NC(=S)N2CCc3ccccc32)cc1 | -16.8% | -16.4%[46.1 µM] | x | x | -8.5% | 29.4%[46.1 µM] | 0.6% | 3.2%
O=C(/C=C/c1ccccc1)C1=C(O)C(=O)N(CCO)C1c1cccc([N+](=O)[O-])c1 (stereo not drawn) | 13.7% | 5.4% | x | x | 2.2% | 1.9%[14.2 µM] | -2.4% | 0.1%
